# Assay outcomes: PubChem BioAssay, National Center for Advancing Translational Sciences (NCATS)
# VACV mCherry inh – inhibitors of vaccinia virus infection (mCherry reporter signal); Potency, µM (top dose mostly 36.5 µM), without a hit: top-dose activity change, negative = inhibition, most hits filed as inhibitors; 310,000 tested, 0.63% active; Vaccinia virus mCherry reporter infection, fluorescence; about a quarter of the inactives have no number; AID 720579; active = well fitted inhibition curve with a large enough effect; inconclusive = small, poorly fitted or top-dose-only effect; inactive = no such curve, though single readings can be large or run the other way; tested in A549 cells; note: nearly all actives have a fitted effect of over 35% in size; inactives centre near -10
# Vaccinia Venus – inhibitors of vaccinia virus (Venus reporter) | Vaccinia virus Venus reporter expression, fluorescence | Potency, µM (series often up to 36.5 µM), without a hit: at the top dose activity change, negative = inhibition, usual class: inhibitors | 330,000 tested, 0.46% active; active means well fitted inhibition curve with a large enough effect; inconclusive means small, poorly fitted or top-dose-only effect; inactive means no such curve, though single readings can be large or run the other way; tested in A549 cells; note: nearly all actives have a fitted effect of over 30% in size; inactives centre near -10
# * marks the source's active call; other numbers are inactive results; i = inactive; ? = inconclusive; / = no result given; & = joins results of further samples; [ ] = remark or other dose. % is set by controls: 0 for no effect and ±100 for the full control effect; potency is the fitted concentration of half-maximal effect. Compounds were not picked by outcome (roughly 0.88% active in at least one column).
SMILES,VACV mCherry inh,Vaccinia Venus
CCc1ccc(OCCCCn2c(CCNC(=O)C3CCCCC3)nc3ccccc32)cc1,-20%,?
CCCCCc1ccc(-c2cn(CCc3c[nH]c4ccccc34)nn2)cc1,-11%&-28%,?
Cc1nc(Br)c(Br)c(C)c1Br,i,-6%
CCCn1c(=O)c(C#N)cn(C2CC2)c1=O,-14%,-15%
CCC(CC)NC(=O)Nc1ccc(C)cc1,-1%,-9%
Cc1ccc(C)n1-c1nnc(N2CCC(C(=O)NCc3ccccc3Cl)CC2)s1,-6%,-4%
CCOc1cc(C#N)c(NC(=O)c2ccc(OC)c(S(=O)(=O)N3CCCCC3)c2)cc1OCC,-5%,-20%
O=C1NC2(CCCCCC2)C(=O)N1Cc1ccc([N+](=O)[O-])cc1,-5%,-3%
Cc1ccc(C(=O)c2ccccc2C(=O)OCC(=O)NCCc2ccccc2)cc1,-11%,-29%
CCCNC(=O)CC(NS(=O)(=O)c1ccc(Cl)cc1)c1ccco1 (stereo not drawn),/,-24%
Cc1noc(C)c1-c1ccc2ncnc(N(C)Cc3ccco3)c2c1,-20%,-29%
NC(=O)NC(c1ccc(Cl)cc1)c1ccccc1Cl (stereo not drawn),-28%,-18%
NNC(=S)Nc1ccc(S(=O)(=O)N2CCCCC2)cc1,-23%,-14%
Cc1cccc(S(=O)(=O)Nc2cccc(-c3ccc(N4CCCCC4)nn3)c2)c1,i,-11%
C[C@]12CCC3C(CC[C@H]4C[C@@H](O)CC[C@]34C)C1C[C@@H](Br)[C@@H]2O (stereo partly drawn),-11%,-1%
COc1ccccc1CNCC(=O)Nc1cc(S(=O)(=O)N2CCCCC2)ccc1C,-22%,-21%
COc1ccc(-c2c(C)c3ccc(O)c(CN4CCCC4)c3oc2=O)cc1,-11%[7.34 µM],-11%[7.34 µM]
COc1cc(/C=N\NC(=O)c2nonc2N)c(OC)cc1Br,-25%,-19%
CCC(C)(C)NC(=O)CN(Cc1ccc2c(c1)OCO2)C(=O)CCC(=O)Nc1nccs1,i,-18%
Cc1ccc(CS/C(Nc2ccccc2C)=C(\C#N)C(N)=O)c(C)c1,-29%,-17%

# Next part (6 carried over from the part before).
SMILES,VACV mCherry inh,Vaccinia Venus
C[C@]12CCC3C(CC[C@H]4C[C@@H](O)CC[C@]34C)C1C[C@@H](Br)[C@@H]2O (stereo partly drawn),-11%,-1%
COc1ccccc1CNCC(=O)Nc1cc(S(=O)(=O)N2CCCCC2)ccc1C,-22%,-21%
COc1ccc(-c2c(C)c3ccc(O)c(CN4CCCC4)c3oc2=O)cc1,-11%[7.34 µM],-11%[7.34 µM]
COc1cc(/C=N\NC(=O)c2nonc2N)c(OC)cc1Br,-25%,-19%
CCC(C)(C)NC(=O)CN(Cc1ccc2c(c1)OCO2)C(=O)CCC(=O)Nc1nccs1,i,-18%
Cc1ccc(CS/C(Nc2ccccc2C)=C(\C#N)C(N)=O)c(C)c1,-29%,-17%
COC(=O)c1ccc(Cl)c(NC(=O)C2CCN(S(=O)(=O)Cc3ccccc3)CC2)c1,-1%,-5%
O=C(c1cccc(NS(=O)(=O)c2ccc(Br)cc2)c1)N1CCCCC1,-9%,-1%
Cc1nc(SCc2ccccc2)nc2c1CCC2,8%,-1%
Cc1cccc(-n2nc([N+](=O)[O-])c(=NCc3cccnc3)n2O)c1,?,?
Cn1ccc2c(N(Cc3ccccc3)Cc3ccccc3)cc3c(c21)C1CCC3C1 (stereo not drawn),13%,-6%
CC1(C(=O)NS(=O)(=O)c2ccc(Br)cc2)CCN1C(=O)C1(c2ccccc2)CC1 (stereo not drawn),21%,-8%
CCCCC(=O)Nc1ccc(NC(=S)NC(=O)c2cccs2)cc1OC,-5%,-1%
Cc1ccc(NC(=O)CC2Nc3ccccc3NC2=O)cc1Cl (stereo not drawn),/,?
Cc1ccc(NC(=O)CSc2nc(=O)n(Cc3cccnc3)c3c2CCC3)cc1F,-24%,-18%
Cc1[nH]c2ccccc2c1SCCN,-20%,-9%
COC(=O)C1CCN(C2CN(Cc3ccc([N+](=O)[O-])cc3)S(=O)(=O)C2)CC1 (stereo not drawn),7%,-1%
O=C(N/N=C/c1ccc(O)cc1)c1cncc(Br)c1,-10%,-8%
CC(C)(C)S(=O)(=O)c1cnc(N2CCCCC2)nc1N,-15%,-13%
OC(CCN1CCCCC1)(c1ccccc1)C1C[C@@H]2C=C[C@H]1C2 (stereo partly drawn),-4%,-15%
CCOC(=O)c1c(NC(=O)c2ccc(-n3cnnn3)cc2)sc2c1CCCC2,-12%,-8%
CCOC(=O)c1c(NC(=O)c2cccnc2)sc(C(C)=O)c1C,-6%,-11%
CCc1nn(CCCC(=O)NCc2ccco2)c(=O)c2cc3occc3n12,i,-8%
CCc1ccc(N(C)S(=O)(=O)c2ccc3[nH]cc(C(=O)NCC4CCCO4)c(=O)c3c2)cc1 (stereo not drawn),?,-28%
CCCCc1ccc(S(=O)(=O)NCCc2ccncc2)cc1,/,?
Cc1ccccc1N(C(=O)c1snc(C(N)=O)c1N)C(C(=O)NC1CCCCC1)c1ccc(O)cc1 (stereo not drawn),?,-11%
C[C@H](O)[C@@]1(O)CC[C@H]2[C@@H]3CC[C@@H]4C[C@H](O)CC[C@]4(C)[C@H]3CC[C@@]21C,-16%,-9%
Cc1ccc(C2CCN(C(=O)c3cnn(-c4ccccc4Cl)c3C3CCN(C(=O)OC(C)(C)C)CC3)C2)cc1 (stereo not drawn),-13%,-22%
CCOc1ccc(NC(=O)c2ccc(F)c(S(=O)(=O)N3CCN(c4ccccn4)CC3)c2)cc1,-6%,-28%
COCCn1c(NCc2ccccc2)nc2c1c(=O)[nH]c(=O)n2C,/,-13%
CC1(C)CC(=O)C2=C(C1)c1c(ccc3ccccc13)NC2c1cc([N+](=O)[O-])cc([N+](=O)[O-])c1O (stereo not drawn),2%,6%
CCCCCC(=O)N1C[C@H](O)[C@@H](n2cc(COC(=O)c3ccccc3)nn2)C[C@@H]1c1ccc(C)cc1,-7%,-18%
CSc1cccc(CN2CCN(CCc3ccccc3)C(CCO)C2)c1 (stereo not drawn),-2%,2%
CCCc1cc(C(=O)Nc2ccc(F)cc2F)no1,-15%,12%
O=C(O)[C@H](Cc1c[nH]c2ccccc12)Nc1ncccc1[N+](=O)[O-],i,-2%
Cc1cc(NC(=O)COC(=O)C2CCC(=O)N2)c([N+](=O)[O-])cc1C (stereo not drawn),-11%,-16%
CCOc1ccc(NC(=O)Cn2cc(C(=O)c3ccccc3)c3ccccc32)cc1,-13%,-15%
Cc1ccn(CC(=O)N2N=C(C(F)F)CC2(O)C(F)F)n1 (stereo not drawn),-17%,-2%
CCOC(=O)c1cc(-c2ccccc2)n(CC(=O)NC(C)c2ccccc2)c1C (stereo not drawn),-11%,-15%
OC(Cc1ccc2ccccc2n1)c1ccc(Cl)c(Cl)c1 (stereo not drawn),-17%,-26%
Cc1ccc(S(=O)(=O)N(CC(=O)N2CCCCCC2)c2ccccc2F)cc1,i,-8%
COc1ccc(NC(=O)Cc2ccc(C)cc2)c([N+](=O)[O-])c1,-13%,-4%
CN1CCC(c2c[nH]c3ccc(O)cc23)CC1,-15%,-4%&-11%
O=C1CSC(c2cccc([N+](=O)[O-])c2)N1c1c(F)cccc1F (stereo not drawn),-7%,-11%
CC(C)CCn1nnnc1C(c1ccccc1)N1CCN(C)CC1 (stereo not drawn),-25%,-1%
CCOC(=O)c1c(-c2ccc(OC)cc2)cn2ccccc12,i,-7%
N#CC(C#N)=C1C=CC=CN1/C(=C\c1ccco1)C(=O)c1ccc(Cl)cc1,?,28µM*
CCCCNS(=O)(=O)c1ccc2nc(-c3cccnc3)cc(C(=O)NC3CCCC3)c2c1,i,-8%
Cc1ccc(C(=O)NCC(=O)N/N=C/c2cccs2)cc1C,-8%,-20%
C=CCN(C(=O)C1=NN(C2CCS(=O)(=O)C2)C(=O)CC1)c1nc(-c2ccc([N+](=O)[O-])cc2)cs1 (stereo not drawn),?,?
CCCC1COC(Cn2cncn2)(c2ccc(C)cc2)O1 (stereo not drawn),i,-11%
c1ccc(-c2nc(N3CCCCCC3)nc(-n3ccnc3)n2)cc1,-4%,4%
COc1ccc(S(=O)(=O)n2c([N+](=O)[O-])cnc2C)cc1OC,i,-6%
O=C1OC2CCC1(c1ccccc1)C2 (stereo not drawn),/,-21%
CC(C)(C)NC(=O)CSc1nnc(C2CC2)n1Cc1ccccc1,-25%,-14%
Cc1cc([N+](=O)[O-])cc(/C=N/n2c(C)nc3ccccc3c2=O)c1O,i,-18%
# The results go on:
SMILES,VACV mCherry inh,Vaccinia Venus
CCn1cc(C(=O)NCc2ccc3c(c2)OCO3)c(=O)c2cc(F)c(N3CCN(C)CC3)cc21,i,-12%
COc1cc(NC(=O)C(=O)NCCN(C)C)c(OC)cc1Cl,?,-7%
CC(=O)c1c(C)n(-c2ccc(Cl)cc2)c2ccc(O)cc12,?,-2%
CCn1nnc(-c2ccccc2NC(=O)c2cccc(-n3cnnn3)c2)n1,-19%,-1%
CCOC(=O)CCNC(C(=O)OCC)c1ccccc1 (stereo not drawn),/,-17%
O=C(CSCc1ccc(Cl)cc1)N1CCN(Cc2ccc3c(c2)OCO3)CC1,i,-24%
CC(C)n1c(SC2C(=O)CC(C)(C)CC2=O)nc2c1c(=O)n(C)c(=O)n2C,-34%,-9%
COc1ccc(N(CC(=O)N2CCN(c3ccc(F)cc3)CC2)S(=O)(=O)c2c(C)noc2C)cc1,-5%,-2%
CC1=C(C(=O)N(C)C)CC(CC(=O)NC2CCCC2)C(=O)N1Cc1ccccc1 (stereo not drawn),i,-6%
O=C(NCCN1CCN(C(=O)c2ccc(F)cc2)CC1)C(=O)NCc1ccccc1,?,-11%

# By substructure, those above with a nitro group on carbon.
SMILES,VACV mCherry inh,Vaccinia Venus
O=C1NC2(CCCCCC2)C(=O)N1Cc1ccc([N+](=O)[O-])cc1,-5%,-3%
Cc1cccc(-n2nc([N+](=O)[O-])c(=NCc3cccnc3)n2O)c1,?,?
COC(=O)C1CCN(C2CN(Cc3ccc([N+](=O)[O-])cc3)S(=O)(=O)C2)CC1 (stereo not drawn),7%,-1%
CC1(C)CC(=O)C2=C(C1)c1c(ccc3ccccc13)NC2c1cc([N+](=O)[O-])cc([N+](=O)[O-])c1O (stereo not drawn),2%,6%
O=C(O)[C@H](Cc1c[nH]c2ccccc12)Nc1ncccc1[N+](=O)[O-],i,-2%
Cc1cc(NC(=O)COC(=O)C2CCC(=O)N2)c([N+](=O)[O-])cc1C (stereo not drawn),-11%,-16%
COc1ccc(NC(=O)Cc2ccc(C)cc2)c([N+](=O)[O-])c1,-13%,-4%
O=C1CSC(c2cccc([N+](=O)[O-])c2)N1c1c(F)cccc1F (stereo not drawn),-7%,-11%
C=CCN(C(=O)C1=NN(C2CCS(=O)(=O)C2)C(=O)CC1)c1nc(-c2ccc([N+](=O)[O-])cc2)cs1 (stereo not drawn),?,?
COc1ccc(S(=O)(=O)n2c([N+](=O)[O-])cnc2C)cc1OC,i,-6%
Cc1cc([N+](=O)[O-])cc(/C=N/n2c(C)nc3ccccc3c2=O)c1O,i,-18%

# Additional compounds.
SMILES,VACV mCherry inh,Vaccinia Venus
CCNC(=S)Nc1ccc(OCC)cc1,-9%,-1%
CCCc1nc2c(nnn2Cc2ccccc2F)c(=O)[nH]1,-2%,-7%
CCOC(=O)c1c(-c2ncc(C(F)(F)F)cc2Cl)noc1C,0%,4%
C[C@@H]1CCCCO[C@H](CN(C)C(=O)Cc2ccccc2)[C@H](C)CN([C@@H](C)CO)C(=O)c2cc(NC(=O)Nc3ccc(F)cc3)ccc2O1,-18%,?
CCCN1CCC(C(=O)NC(c2ccc(F)cc2)c2ncccc2C)CC1 (stereo not drawn),21%,4%
C=CCNc1nc(Nc2ccc([N+](=O)[O-])cc2)nc(OCC)n1,-18%,-11%
C(=C1c2ccccc2-c2ccccc21)c1ccccn1,-29%,-13%
CCOC(=O)C1=C(c2ccccc2)NC(=S)NC1c1ccc(Cl)cc1 (stereo not drawn),-18%,-20%
COc1cccc(/C=C2\SC(=S)N(CCCC(=O)Nc3cc(C)on3)C2=O)c1,-15%,-5%
CCOC(CNc1c([N+](=O)[O-])c(=O)n(C)c(=O)n1C)OCC,i,-2%
Cc1ccc(S(=O)(=O)N2CCN(c3nc(-n4c(=O)[nH]c5ccccc54)nc4ccccc34)CC2)cc1,-23%,-28%
Cn1c(C(=O)NCCCN2CCN(c3ccc(F)cc3)CC2)cc2c(=O)n(C)c3ccccc3c21,-19%,-16%
O=C(Nc1nc2ccccc2[nH]1)C1CCC1,?,-25%
COC(=O)Cn1c2nc3ccccc3nc2c2cccc(C)c21,i,-15%
COc1ccc(CCNC(=O)CCc2cn(C)c3ccccc23)c(OC)c1OC,-13%,-14%
CCn1c(COc2cccc(OC)c2)nnc1SCC(=O)NC1CCCC1,?,-11%
O=C(O)C1=C[C@H](c2coc3ccccc3c2=O)C[C@H](OCCCCO)O1,-12%,-7%
Cc1ccc(C)c(OCCC(=O)OCC(=O)Nc2ccc(Cl)cn2)c1,-12%,6%
CCCS(=O)(=O)c1csc(C(=O)OC)c1N,-9%,-6%
CCOC(=O)c1c(NC(=O)COC(=O)Cc2c[nH]c3ccccc23)sc(C(=O)N(C)C)c1C,-18%,-12%
Cc1cc(C)cc(OCCOCCn2c(-c3ccc(Cl)cc3)nc3ccccc3c2=O)c1,-6%,-3%
CCCCOc1ccccc1C1C(C(=O)OC)=C(C)N(C)C(C)=C1C(=O)OC,i,-17%
CCC(=O)Nc1cc(OC)c(NC(=O)c2ccccc2)cc1OC,-10%,-1%
